# Compound activity (PubChem)
# MITF inh – MITF inhibition; TRPM1 promoter luciferase, luminescence, 24 h; inhibition, % (test concentration not listed); actives 0.28% (n = 37,000); AID 2240;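 active = most replicates at 85% or more, or half of them and the mean; inconclusive = half reach 85% but not the mean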;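 also: human melanocyte line stably carrying TRPM1 promoter luciferase reporter; 0% = vehicle wells and 100% = a positive control; the first replicate is given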
# PD-1 reversal – reversal of PD-1 mediated T-cell inhibition. primary human CD4 T cells, PD-L1 beads, CellTiter-Glo 96 h. activation, % (test concentration not listed). 29,000 tested, under 10 active. AID 2316;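 active = replicate mean of 50% or more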;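 also: 0% = median vehicle wells and 100% = positive control; 100 nL library stock added to about 50 µL; numbers are from one replicate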
# Shh pathway inh – blocks Sonic Hedgehog signaling; Shh-LIGHT2 Gli-luciferase reporter, 30 h; actives 2.1% (n = 22,000); inhibition, % (test concentration not listed);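 active = replicate mean of 65% or more; inconclusive = mean lower but half the replicates past it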;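 also: pathway switched on by Shh-conditioned medium diluted 1 in 25 in low serum; 100 nL library stock added to about 40 µL; 0% = median of neutral wells and 100% = positive control level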
# YB-1 expr inh – YB-1 expression inhibition. delta delta Cp (YB-1 minus CDIP) (no concentration beside the values). actives 0.37% (n = 30,000). U2OS, qRT-PCR YB-1 vs CDIP delta delta Cp, 16 h; stronger effect = higher value; zero = DMSO, each unit about twofold. AID 434959;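 active = delta delta Cp rounded down to an integer at or above 3, about 3 SD of DMSO wells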;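 also: higher means less YB-1 transcript or more CDIP transcript relative to DMSO; stock transfer was 100 nL into about 100 µL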
# An asterisk follows results filed as active; u = inconclusive; x = no result given. An excerpt. The share of hits here may be higher or lower than overall.
# Start of the data: the first 2 entries, to show the layout:
SMILES,MITF inh,PD-1 reversal,Shh pathway inh,YB-1 expr inh
CNC[C@H]1Oc2c(NS(=O)(=O)c3ccc(Cl)cc3)cccc2C(=O)N([C@@H](C)CO)C[C@H]1C,-4,x,17,-0.15
C[C@@H]1CN([C@H](C)CO)C(=O)c2cccc(NC(=O)Nc3ccc4c(c3)OCO4)c2O[C@@H]1CN(C)C(=O)Nc1cccc2ccccc12,-14,3.0,-25,0.73

# The listing, from the first entry:
SMILES,MITF inh,PD-1 reversal,Shh pathway inh,YB-1 expr inh
CNC[C@H]1Oc2c(NS(=O)(=O)c3ccc(Cl)cc3)cccc2C(=O)N([C@@H](C)CO)C[C@H]1C,-4,x,17,-0.15
C[C@@H]1CN([C@H](C)CO)C(=O)c2cccc(NC(=O)Nc3ccc4c(c3)OCO4)c2O[C@@H]1CN(C)C(=O)Nc1cccc2ccccc12,-14,3.0,-25,0.73
C[C@@H]1CN([C@H](C)CO)C(=O)c2cc(NS(C)(=O)=O)ccc2O[C@H]1CN(C)Cc1ccc(C(F)(F)F)cc1,-6,0.2,30,-0.22
C[C@@H]1CN([C@@H](C)CO)C(=O)c2cc(NC(=O)Nc3cccc4ccccc34)ccc2O[C@H]1CN(C)S(=O)(=O)c1cccs1,-16,0.6,x,0.36
C[C@@H]1CN([C@H](C)CO)C(=O)c2cccc(NC(=O)Nc3ccccc3)c2O[C@@H]1CN(C)Cc1ccc(C(=O)Nc2ccccc2N)cc1,13,-5.3,x,-0.8
Cc1cc(C(=O)Nc2cccc3c2O[C@H](CN(C)Cc2ccc(-c4ccccc4)cc2)[C@H](C)CN([C@@H](C)CO)C3=O)n(C)n1,-16,-0.3,14,-0.41
Cc1noc(C)c1NC(=O)N(C)C[C@@H]1Oc2ccc(NS(C)(=O)=O)cc2CC(=O)N([C@@H](C)CO)C[C@@H]1C,7,x,-11,-0.2
CNC[C@@H]1OCCCC[C@@H](C)Oc2ccc(NC(=O)c3ccccc3)cc2C(=O)N([C@H](C)CO)C[C@@H]1C,-9,1.3,x,0.079
C[C@H]1CN([C@@H](C)CO)C(=O)c2cccc(NC(=O)Nc3ccccc3)c2O[C@@H]1CN(C)S(C)(=O)=O,-10,0.1,4,-0.33
COc1ccc(CN(C)C[C@@H]2Oc3ccc(NC(=O)CCCCCC(=O)Nc4ccccc4N)cc3CC(=O)N([C@H](C)CO)C[C@@H]2C)cc1,11,-1.8,x,-0.55
Cc1noc(C)c1NC(=O)Nc1ccc2c(c1)C(=O)N([C@@H](C)CO)C[C@@H](C)[C@@H](CN(C)Cc1ccc(C(F)(F)F)cc1)O2,-6,1.4,x,0.14
COc1ccc(S(=O)(=O)N(C)C[C@H]2Oc3c(NC(=O)Nc4c(C)noc4C)cccc3C(=O)N([C@H](C)CO)C[C@H]2C)cc1,-1,0.4,-9,0.048
CC1(C)CC[C@]2(C(=O)O)CC[C@]3(C)C(=CCC4[C@@]5(C)CC[C@H](O[C@@H]6O[C@H](CO)[C@@H](O)[C@H](O)[C@H]6O)[C@@](C)(CO)C5CC[C@]43C)[C@@H]2C1 (stereo partly drawn),x,x,88*,0.2
COC(=O)c1ccccc1NC(=O)CN(c1cc(Cl)c(Cl)cc1Cl)S(C)(=O)=O,-33,2.0,x,x
COc1ccc(S(=O)(=O)N(C)C[C@H]2Oc3c(NS(=O)(=O)c4ccc(Cl)cc4)cccc3C(=O)N([C@@H](C)CO)C[C@H]2C)cc1,2,1.6,-23,-0.28
CCc1cc(C(=O)OC)c(NC(=O)c2cc(-c3cccnc3)nc3ccc(Br)cc23)s1,12,1.3,x,x
C[C@@H]1CN([C@H](C)CO)C(=O)c2cc(NS(=O)(=O)c3ccc(Cl)cc3)ccc2O[C@@H]1CN(C)C,-10,0.9,x,-0.062
C[C@@H]1CN([C@@H](C)CO)C(=O)Cc2cc(NC(=O)NC3CCCCC3)ccc2O[C@@H]1CN(C)C,-5,1.6,11,0.066
Cc1ccc(-n2c(SCC(=O)Nc3ccc(Br)cc3)nnc2-c2ccco2)cc1,15,-4.6,x,x
Cc1ccc(S(=O)(=O)N(C)C[C@@H]2Oc3ccc(NC(=O)CCCN(C)C)cc3CC(=O)N([C@H](C)CO)C[C@H]2C)cc1,9,x,-15,-0.29
COc1ccc(CN(C)C[C@H]2Oc3c(NS(=O)(=O)c4ccc(OC)cc4)cccc3C(=O)N([C@@H](C)CO)C[C@H]2C)cc1,4,x,14,-0.0081
C[C@H](CO)N1C[C@H](C)[C@@H](CN(C)Cc2ccc(C(=O)O)cc2)Oc2ccc(NC(=O)Nc3cccc4ccccc34)cc2C1=O,9,x,-10,0.089
Cc1cccc(C)c1NC(=O)CN(C1CCCCC1)S(=O)(=O)c1ccc(Cl)cc1,0,-0.3,x,x
COc1cc(NC(=O)COc2cc(C)c(Cl)c(C)c2)ccc1NC(=O)c1ccco1,8,1.7,x,x
COc1ccc(NC(=O)Nc2ccc3c(c2)CC(=O)N([C@H](C)CO)C[C@@H](C)[C@@H](CN(C)S(=O)(=O)c2cn(C)cn2)O3)cc1,1,0.3,x,-0.49
Cc1cc(C)c(C)c(S(=O)(=O)NCCC(=O)O)c1C,-10,1.8,x,x
C[C@@H]1CN([C@@H](C)CO)C(=O)c2cccc(NC(=O)C3CC3)c2O[C@@H]1CN(C)Cc1ccc(C(=O)O)cc1,-2,0.6,-3,2.4
C[C@@H]1CN([C@H](C)CO)C(=O)Cc2cc(NC(=O)Cc3ccccc3)ccc2O[C@H]1CN(C)C(=O)Nc1cccc2ccccc12,4,x,x,0.33
Cc1noc(C)c1NC(=O)Nc1ccc2c(c1)C(=O)N([C@@H](C)CO)C[C@H](C)[C@@H](CN(C)Cc1ccc(C(F)(F)F)cc1)O2,-5,-0.6,x,-0.41
Cc1noc(C)c1NC(=O)Nc1cccc2c1O[C@@H](CN(C)S(=O)(=O)c1ccc(Cl)cc1)[C@H](C)CN([C@@H](C)CO)C2=O,2,1.1,-46,0.2
Cc1ccc(Cl)cc1NC(=O)CSc1nnc(-c2ccc([N+](=O)[O-])cc2)n1-c1ccccc1,33,-3.0,x,x
C[C@H](CO)N1C[C@H](C)[C@@H](CN(C)CC2CC2)Oc2c(NS(=O)(=O)c3cccs3)cccc2C1=O,0,0.6,19,0.0076
C[C@@H]1CN([C@H](C)CO)C(=O)Cc2cc(NC(=O)CCN3CCOCC3)ccc2O[C@@H]1CN(C)C(=O)Nc1cccc2ccccc12,2,x,29,-0.36
CCOC(=O)N1CCc2c(sc3[nH]c(=S)n(-c4ccccc4)c(=O)c23)C1,-5,0.1,3,0.012
C[C@H]1CN([C@@H](C)CO)C(=O)c2cc(NS(=O)(=O)c3ccccc3)ccc2O[C@@H]1CN(C)S(C)(=O)=O,-3,x,x,0.028
C[C@H](CO)N1C[C@H](C)[C@H](CN(C)S(=O)(=O)c2ccc(Cl)cc2)Oc2c(NS(C)(=O)=O)cccc2C1=O,-2,0.2,-9,0.56
COc1ccc(OC)c(NC(=O)COc2ccc(C(=O)Nc3cccc(C)c3C)cc2)c1,12,-0.2,x,x
CC(C)NC(=O)Nc1cccc2c1O[C@H](CN(C)C(=O)Nc1ccc3c(c1)OCO3)[C@@H](C)CN([C@H](C)CO)C2=O,-5,0.8,-21,-0.2
O=C(Nc1ccc(S(=O)(=O)Nc2nccs2)cc1)C1COc2ccccc2O1 (stereo not drawn),-12,-0.5,x,x
Cc1ccc(-c2noc(CSc3nc(C)c(C)c(=O)[nH]3)n2)cc1,59,1.3,x,x
O=c1cc(N2CCOCC2)oc2c1ccc1ccccc12,-2,-1.4,-70,-0.33
C[C@H](CO)N1C[C@H](C)[C@@H](CN(C)C(=O)NC2CCCCC2)Oc2c(NC(=O)Nc3cccc4ccccc34)cccc2C1=O,-2,-3.8,-3,-0.15
Cc1cc(Cl)c(OCCCSc2nc(C)cc(=O)[nH]2)c(Br)c1,-24,-4.1,x,x
COc1ccc(NC(=O)N(C)C[C@H]2Oc3c(NC(=O)Nc4ccccc4)cccc3C(=O)N([C@H](C)CO)C[C@@H]2C)cc1,-11,x,12,0.68
C[C@H]1CN([C@@H](C)CO)C(=O)c2cccc(NC(=O)Nc3ccc4c(c3)OCO4)c2O[C@H]1CN(C)S(=O)(=O)c1ccc(F)cc1,-30,-1.9,101*,-0.12
C[C@H]1CN([C@@H](C)CO)C(=O)c2cc(NS(=O)(=O)c3ccc(F)cc3)ccc2O[C@H]1CN(C)C,-3,0.0,-9,0.57
COC(=O)c1cc(NC(=O)CSc2nc(C)nc3sc4c(c23)CCC4)cc(C(=O)OC)c1,30,-2.7,x,x
NC(=O)c1ccccc1NC(=O)CS(=O)(=O)Cc1ccccc1,-11,2.8,x,x
Cc1c(Br)c([N+](=O)[O-])nn1CC(=O)NCc1ccccc1,-16,0.3,x,x
Cc1noc(C)c1NC(=O)N(C)C[C@@H]1Oc2c(NC(=O)Nc3ccccc3)cccc2C(=O)N([C@@H](C)CO)C[C@H]1C,-5,1.1,-20,-0.49
C[C@@H]1CN([C@H](C)CO)C(=O)c2cc(NS(=O)(=O)c3ccccc3)ccc2O[C@H]1CN(C)S(=O)(=O)c1cn(C)cn1,-16,0.3,-26,0.047
CCOC(=O)C1CCCN(Cc2ccccc2)C1 (stereo not drawn),4,0.3,6,0.12
COc1ccc(CN(C)C[C@@H]2Oc3c(NC(=O)Nc4ccc(F)cc4)cccc3C(=O)N([C@H](C)CO)C[C@H]2C)cc1,20,-5.0,19,0.11
C[C@H](CO)N1C[C@H](C)[C@@H](CN(C)Cc2ccc(Oc3ccccc3)cc2)Oc2c(NC(=O)Nc3ccc4c(c3)OCO4)cccc2C1=O,-1,x,39,0.82
O=C(Nc1ccc(S(=O)(=O)NCC2CCCO2)cc1)C1CCCO1 (stereo not drawn),20,3.0,x,x
CNc1nc2c(Cl)cc(Cl)cc2s1,-42,-0.1,-40,-0.13
COc1ccc(S(=O)(=O)Nc2ccc3c(c2)C(=O)N([C@@H](C)CO)C[C@H](C)[C@@H](CN(C)S(=O)(=O)c2ccc(F)cc2)O3)cc1,-9,0.7,x,-0.19
COc1ccc(C2Oc3c(OC)cc(CCCO)cc3C2CO)cc1OC1OC(CO)C(O)C(O)C1O (stereo not drawn),-3,0.4,-26,-0.86
Cn1ncc(C#N)c1NC(=O)C1CC(c2c(F)cccc2Cl)=NO1 (stereo not drawn),-8,1.0,x,x
CCOC(=O)c1nnn2c1nc(N(Cc1ccccc1)Cc1ccccc1)c1ccccc12,-8,-1.6,x,0.37

# 2 records drawn at random from those above:
SMILES,MITF inh,PD-1 reversal,Shh pathway inh,YB-1 expr inh
COC(=O)c1cc(NC(=O)CSc2nc(C)nc3sc4c(c23)CCC4)cc(C(=O)OC)c1,30,-2.7,x,x
COc1ccc(S(=O)(=O)Nc2ccc3c(c2)C(=O)N([C@@H](C)CO)C[C@H](C)[C@@H](CN(C)S(=O)(=O)c2ccc(F)cc2)O3)cc1,-9,0.7,x,-0.19

# (listing goes on)
SMILES,MITF inh,PD-1 reversal,Shh pathway inh,YB-1 expr inh
COc1ccc(S(=O)(=O)N(C)C[C@H]2Oc3ccc(NC(=O)C4CCCCC4)cc3C(=O)N([C@H](C)CO)C[C@@H]2C)cc1,-7,0.6,x,0.12
COc1ccc(NC(=O)N(C)C[C@H]2OCCCC[C@@H](C)Oc3ccc(NS(=O)(=O)c4cn(C)cn4)cc3C(=O)N([C@H](C)CO)C[C@@H]2C)cc1,-28,x,17,-0.19
Cc1ccc(S(=O)(=O)Nc2cccc3c2O[C@H](CN(C)S(=O)(=O)c2cccs2)[C@H](C)CN([C@@H](C)CO)C3=O)cc1,0,-1.1,17,0.11
C[C@H]1CN([C@@H](C)CO)C(=O)c2cc(NC(=O)C3CC3)ccc2O[C@H]1CN(C)S(=O)(=O)c1cn(C)cn1,-1,0.0,-62,-0.23
Cc1noc(C)c1NC(=O)N(C)C[C@H]1Oc2ccc(NC(=O)CCN3CCOCC3)cc2CC(=O)N([C@@H](C)CO)C[C@@H]1C,-8,2.0,2,-0.23
C[C@@H]1CN([C@H](C)CO)C(=O)c2cccc(NC(=O)C3CC3)c2O[C@H]1CN(C)S(=O)(=O)c1cccs1,-11,2.6,-16,0.29
C[C@H](CO)N1C[C@H](C)[C@H](CN(C)CC2CCCCC2)Oc2ccc(NC(=O)CCN3CCOCC3)cc2CC1=O,-4,x,12,0.32
C[C@@H]1CN([C@@H](C)CO)C(=O)c2cccc(NS(=O)(=O)c3ccc(Cl)cc3)c2O[C@@H]1CN(C)Cc1ccc(-c2ccccc2)cc1,5,-3.9,u,-0.89
Cc1noc(C)c1NC(=O)N(C)C[C@H]1Oc2c(NC(=O)NC3CCCCC3)cccc2C(=O)N([C@@H](C)CO)C[C@H]1C,3,0.5,5,-0.011
C[C@@H]1CN([C@H](C)CO)C(=O)Cc2cc(NS(=O)(=O)c3ccc(Cl)cc3)ccc2O[C@H]1CN(C)C(=O)Nc1ccc(F)cc1,-3,x,-9,0.14
C[C@H](CO)N1C[C@H](C)[C@H](CN(C)Cc2ccc(Cl)c(Cl)c2)Oc2c(NC(=O)CCCCCC(=O)Nc3ccccc3N)cccc2C1=O,41,-0.7,x,-0.069
CC(C)NC(=O)N(C)C[C@@H]1Oc2ccc(NC(=O)C3CCCCC3)cc2C(=O)N([C@H](C)CO)C[C@@H]1C,-3,x,x,-0.14
C[C@H]1CN([C@@H](C)CO)C(=O)c2cccc(NC(=O)Nc3ccc(C(F)(F)F)cc3)c2O[C@H]1CN(C)Cc1ccc(C(=O)O)cc1,-5,1.8,-2,-0.34
